# Beta apoptosis = beta cell apoptosis inhibition; INS-1E cytokine-induced death, ATP luminescence, 48 h; percent of positive-control rescue, neutral wells zero; AID 435005; hit rate 0.8% among 300,000; protection from apoptosis, % (no concentration beside the values);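 active = all replicates at 75% or more, or half of them and the mean; inconclusive = half reach 75% but not the mean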;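 note: 0% = cytokine-treated negative control wells and 100% = positive control rescue; higher means more ATP so stronger rescue from cytokine killing; wells of about 40 µL received 100 nL stock; the first replicate is given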
# A1 inh = inhibitors of the anti-apoptotic protein A1, read as caspase activation; MEF A1-2A-BIM cells, Caspase-Glo 3/7 luminescence, 3 h; percent of clofoctol response, vehicle zero; caspase activation, % (no concentration beside the values); hit rate 0.066% among 330,000;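 active = over half of replicate activation scores above 10%, or exactly half above 10 with the replicate mean above 10; inconclusive = replicate mean below 10 yet half the replicates above 10; inactive = over half of replicates below 10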;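 note: wells of about 30 µL received 50 nL stock; many hits fall short of the cut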
# T cruzi repl = blocks replication of Trypanosoma cruzi; T. cruzi beta-gal in NIH3T3, luminescence, 90 h; inhibition, % (no concentration beside the values); hit rate 1.4% among 300,000; AID 1885;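 active = mean inhibition across valid replicates above about 55%, limit read from the data; inconclusive = mean below that limit but half or more replicates reach it; inactive = mean below it, under half of replicates reach it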;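 note: signal also drops with host cell toxicity which is not excluded here; 0% = plate median of DMSO wells and 100% = zero luminescence signal; higher percent means less beta-gal luminescence so fewer parasites; stock transfer was 50 nL into about 50 µL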
# ALR H2O2 inh = blocks human ALR sulfhydryl oxidase activity; AID 485317; P55789; inhibition, % (test concentration not listed); purified ALR, DTT oxidation, H2O2 HRP-luminol luminescence; hit rate 3.8% among 290,000;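 active = mean and each replicate at 75% or more; inconclusive = only one of the two met; inactive = neither met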;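 note: stock transfer was 7.5 nL into about 7.5 µL; 0% = neutral wells and 100% = wells with inactivated enzyme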
# Target sequence (P55789 whole entry, looked up): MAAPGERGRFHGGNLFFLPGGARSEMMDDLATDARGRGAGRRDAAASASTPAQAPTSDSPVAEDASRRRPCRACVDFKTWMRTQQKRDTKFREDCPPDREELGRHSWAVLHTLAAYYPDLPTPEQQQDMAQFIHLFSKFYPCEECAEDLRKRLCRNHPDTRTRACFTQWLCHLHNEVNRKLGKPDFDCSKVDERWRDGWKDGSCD
# Calb FLC = affects C. albicans growth with fluconazole | hit rate 0.57% among 300,000 | C. albicans CaCi-2 (fluconazole-resistant clinical isolate) + fluconazole, Alamar Blue growth, 48 h | growth inhibition, % (no concentration beside the values);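 active = most replicates above 75%; inconclusive = exactly half above 75%; inactive = most below 75%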;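 note: all wells also contain fluconazole at 8 µg/ml as a sub-toxic cotreatment; 0% = median of DMSO wells and 100% = median of geldanamycin control wells; wells of about 8 µL received 7.5 nL stock; the first replicate is given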
# B2AR ag = human beta-2 adrenergic receptor agonism by FAP | P07550 | Am2.2-beta2AR cells, FAP receptor internalization, flow cytometry; reference of the scale not given here | response, % (test concentration not listed) | hit rate 0.43% among 340,000;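 active = response above a set limit, near 3 SD of response in nonfluorescent compounds, cut at about 42% in these data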;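 note: stock transfer was 100 nL into about 11 µL; a reference agonist was the positive control; negative values mostly stem from fluorescent compounds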
# Target sequence (P07550 whole entry, looked up): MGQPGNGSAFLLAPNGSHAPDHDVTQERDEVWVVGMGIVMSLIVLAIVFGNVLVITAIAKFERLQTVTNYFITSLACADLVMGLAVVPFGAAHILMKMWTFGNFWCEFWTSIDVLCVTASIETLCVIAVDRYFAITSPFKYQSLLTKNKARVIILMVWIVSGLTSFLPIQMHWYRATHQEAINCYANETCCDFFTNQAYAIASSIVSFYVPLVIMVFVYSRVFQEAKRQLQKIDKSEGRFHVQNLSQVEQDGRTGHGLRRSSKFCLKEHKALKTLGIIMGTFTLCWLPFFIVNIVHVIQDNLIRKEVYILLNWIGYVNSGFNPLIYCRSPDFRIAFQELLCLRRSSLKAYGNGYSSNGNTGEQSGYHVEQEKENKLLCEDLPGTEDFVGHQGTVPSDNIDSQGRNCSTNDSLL
# rRNA inh HTS = inhibits bacterial ribosomal RNA function over humanized ribosomes; E. coli WT GFP vs humanized-ribosome RFP mutants, fluorescence, 24 h; hits give low values; DMSO median 0, no signal -100; GFP signal change (wild-type ribosome), % (test concentration not listed); hit rate 1.6% among 350,000;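 active = significant combined selectivity score with lowered wild-type GFP, culture density cut under 30%, mutant RFP and density less affected; inactive = any of these conditions unmet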; note: one replicate is shown; some compounds called inactive have numbers as strong as hits
# LANA-H2A inh = blocks KSHV LANA binding to histone H2A/H2B; Q9QR71; cell-free LANA-H2A/H2B peptide, fluorescence polarization; inhibition, % (concentration not given with the values); hit rate 0.6% among 320,000; AID 2629; in the data active = inhibition mostly above about 10%, no sharp cut-off; inactive = mostly below about 6.7%;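 note: stock transfer was 7.5 nL into about 10 µL; 0% = median of vehicle wells and 100% = median of positive control wells; one replicate is shown; the record names a cut of 25% in any replicate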
# rRNA inh HTS OD600 = further read-out of rRNA inh HTS, marked with its call; OD600 change, %; measured here: OD600 growth;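 optical density of the mix in the first replicate; 0 = DMSO median and -100 = no signal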
# rRNA inh HTS RFP = also measured in rRNA inh HTS; calls as there; RFP signal change, %; measured here: RFP humanized mutant strains;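 first replicate; 0 = DMSO median and -100 = no signal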
# * hit, by the source's call; ? = inconclusive; / = no result given.
SMILES,Beta apoptosis,A1 inh,T cruzi repl,ALR H2O2 inh,Calb FLC,B2AR ag,rRNA inh HTS,rRNA inh HTS OD600,rRNA inh HTS RFP,LANA-H2A inh
CCN(CC)C(=O)COc1c(-c2ccco2)oc2ccccc2c1=O,-2,0.2,-5,1,30,-24,11,14,3.3,3.1
Cc1ccc(S(=O)(=O)N2CCCc3cc(NC(=O)c4c(F)cccc4F)ccc32)cc1,5,-0.8,-3,-4,-3,8,2,-6,-1.0,6.3
COc1ccc(S(=O)(=O)N(CC(=O)N2CCOCC2)c2ccc(F)cc2)cc1OC,/,2.1,-9,-9,-5,0,-3,0,0.6,0.9
CCOc1cc(CNCCc2ccc(S(N)(=O)=O)cc2)cc(Cl)c1OCc1ccccc1,51,-0.1,58*,-4,10,31,-59,-82,-34,-3.8
CCN(Cc1ccccc1)C(=O)C1CCC(CNc2c(N3CCOCC3)c(=O)c2=O)CC1 (centres undefined),/,1.4,0,-13,-13,5,9,9,0.9,3.5
Cc1cc(Cl)ccc1OCC(=O)NNC(=O)c1ccc(=O)[nH]c1,-15,0.9,/,0,/,-7,-1,-2,2.9,1.5
O=C(NNC1=NC2(CCCC2)Cc2ccccc21)c1ccncc1,-2,0.2,-3,/,-22,-6,5,3,-0.8,-7.0
COC(=O)c1cn(NC(=O)Cc2ccc(Cl)c(Cl)c2)c(=O)c2ccccc12,4,0.2,-1,-17,3,-3,/,/,/,5.1
Cc1cccc(NC(=O)c2cc([N+](=O)[O-])ccc2N2CCN(C)CC2)c1,-1,0.1,3,-3,-8,0,2,-1,-1.1,2.1
O=C(Cc1cccs1)Nc1nnc(SCc2cccc3ccccc23)s1,3,0.1,-17,2,0,-2,/,/,/,-2.6
O=C(COc1ccccc1F)Nc1ccc2c(c1)CCC2,-3,1.5,/,38,/,0,-19,-15,-2.5,-3.6
C/C(=N\NC(=O)CCc1ccc(S(=O)(=O)N2CCOCC2)cc1)c1ccc(Br)cc1,1,-0.5,25,-3,-10,3,4,-5,-0.3,-4.2

# Reprinted at random: two entries already listed
SMILES,Beta apoptosis,A1 inh,T cruzi repl,ALR H2O2 inh,Calb FLC,B2AR ag,rRNA inh HTS,rRNA inh HTS OD600,rRNA inh HTS RFP,LANA-H2A inh
C/C(=N\NC(=O)CCc1ccc(S(=O)(=O)N2CCOCC2)cc1)c1ccc(Br)cc1,1,-0.5,25,-3,-10,3,4,-5,-0.3,-4.2
O=C(Cc1cccs1)Nc1nnc(SCc2cccc3ccccc23)s1,3,0.1,-17,2,0,-2,/,/,/,-2.6

# Following part.
SMILES,Beta apoptosis,A1 inh,T cruzi repl,ALR H2O2 inh,Calb FLC,B2AR ag,rRNA inh HTS,rRNA inh HTS OD600,rRNA inh HTS RFP,LANA-H2A inh
CCCCc1c(O)nc2sc3cc(OC)ccc3n2c1=O,-4,0.2,8,-18,-16,-3,/,/,/,6.4
CC(=O)N1CCN(CC(O)COc2ccc(S(=O)(=O)N3CCOCC3)cc2)CC1 (centres undefined),-4,0.6,/,/,/,-4,21,9,0.9,-3.3
C=CCN1C(=O)c2ccc(C(=O)NCCOc3ccccc3F)cc2C1=O,-2,-0.6,2,-2,-2,-8,5,3,1.2,-1.1
Cc1ccc(-c2csc(-c3c[nH]c4ccccc34)n2)c(C)c1,1,0.5,21,2,-21,-12,/,/,/,-3.2
COc1cccc(C(=O)Oc2ccc3ccc(=O)oc3c2)c1,-5,-1.4,-9,-16,2,14,15,15,-1.0,3.9
CC(C)(C)NC(=O)COc1ccc(CNn2nnnc2N)cc1,-3,0.6,12,-5,1,2,/,/,/,7.4
Cc1cc(C)n(-c2n[nH]c(C)c2[N+](=O)[O-])n1,-1,-0.4,-8,5,13,-1,5,-3,2.3,3.8
COc1ccccc1C(=O)NCCC(=O)Nc1nc2ccccc2[nH]1,-10,-0.1,-4,-4,/,-14,1,-2,-0.2,-3.9
CC(C(=O)Nc1nccs1)N1C(=O)C2CC=CCC2C1=O (centres undefined),-4,0.1,10,-18,11,2,/,/,/,-4.2
O=C(/C=C/c1cccs1)NC1CC1,0,-0.9,2,-5,-2,-4,20,14,0.6,-1.2
NNC(=O)c1csc(-c2cccc(C(F)(F)F)c2)n1,1,0.7,-6,59,5,-3,2,-12,0.7,1.4
C=CCN(CC(O)c1cccc([N+](=O)[O-])c1)C(C)CCc1ccccc1 (centres undefined),-9,0.0,25,/,-1,0,-21*,-12*,-0.9*,1.5
C=CCON/C(CCC)=C1\C(=O)CC(C)(C)CC1=NC,-5,0.9,-1,-8,15,1,14,10,5.0,0.9
Cc1cc(C)n(CCNS(=O)(=O)c2ccc(Cl)cc2)n1,-2,0.5,-4,-2,2,-1,10,13,2.6,-0.5
COc1ccc(S(=O)(=O)/N=C2/NC(=O)/C(=C\c3ccco3)S2)cc1,1,0.8,-2,-5,31,-7,/,/,/,2.2
CCOC(=O)C(=O)/C(=C\N(C)C)c1onc(-c2ccccc2)c1C(=O)OC,-2,0.3,-17,2,-4,16,/,/,/,-1.7
CSc1nc2c(c(=O)n1C)SC(C)C2 (centres undefined),-8,0.1,-10,-9,4,3,3,5,-1.5,0.8
CC1(C)C(=O)OC(C(=O)c2ccc(Cl)cc2)C(C)(C)C1=O (centres undefined),0,0.3,-3,-15,2,-3,/,/,/,5.6
O=C(CSc1nc(=O)n(CCCN2CCOCC2)c2c1CCCC2)Nc1cccc(Cl)c1,-3,-0.2,5,99*,5,-13,-7,-1,1.8,-12
O=C(O)COc1ccc(Br)cc1C(c1c(C(=O)O)[nH]c2ccccc12)c1c(C(=O)O)[nH]c2ccccc12,0,-0.9,-4,34,-4,-5,/,/,/,-4.4
O=C(OCc1nnc(-c2ccccc2)o1)c1cccnc1Cl,3,-0.8,-9,-9,-21,-1,-1,-8,2.0,-5.2
Nc1ccccc1C(=O)NCc1ccc(F)cc1,-1,1.0,-11,-12,-1,6,6,10,-1.0,6.0
CCCOc1ccc(/C=N/n2nnnc2N)cc1OC,-1,1.6,-9,-13,-1,3,10,9,-1.4,2.9
CCc1nn(-c2ccccc2)c(=S)c2ccccc12,17,-0.8,17,-2,21,5,/,/,/,-2.1
O=C(c1ccc([N+](=O)[O-])cc1)N1CCSC1c1ccc(Cl)cc1 (centres undefined),2,0.5,-6,-3,5,0,20,6,0.3,3.1
CC(C)c1ccc(NC(=O)Cn2nnc(C(=O)NCc3ccc4c(c3)OCO4)c2N)cc1,4,0.5,-4,0,-5,1,13,23,1.5,-1.8
CN(C)CCCN(C(=O)CCc1ccccc1)c1nc2ccc(F)cc2s1,1,0.4,37,-5,-3,0,/,/,/,7.7
COCCSc1nnc(NC(=O)CS(=O)(=O)c2ccc(C)cc2)s1,0,0.1,7,/,0,-4,-6,3,-5.2,-0.4
CCOC(=O)N1CCN(Cc2cccs2)CC1,0,0.0,-2,-10,-13,-2,/,/,/,-0.3
Cc1ccc(C)c(Nc2cc(C)nc(-c3ccccc3O)n2)c1,9,0.4,3,-10,24,-4,14,-53,21,-4.4
CCOc1ccc(NC(=O)Cn2ncc3ccccc32)cc1,-7,-6.9,-4,22,1,-2,8,16,1.2,2.6
COc1ccc(CC(=O)NNc2ncnc3c2cnn3Cc2ccccc2)cc1OC,-1,1.2,-2,50,-9,-3,3,2,2.0,-5.9
Cc1ccc(OCCNC(=O)CNC(=O)c2ccccc2Cl)cc1,2,-0.3,/,2,/,-4,9,3,-2.0,4.6
Cc1cccc(CC(C)NC(=O)CCc2nnc(CCCCc3ccccc3)o2)n1 (centres undefined),-3,-0.1,-2,/,20,2,-11,-12,-1.8,11
CC(NC(=O)CC12CC3CC(CC(C3)C1)C2)C(=O)O (centres undefined),0,0.1,-6,-15,-5,7,3,-1,-3.8,-3.3
C=CCOCC(O)CS(=O)(=O)Cc1ccc(Cl)cc1 (centres undefined),-3,-0.4,-1,1,-3,5,/,/,/,3.7
COc1ccccc1N=Nc1ccc(N)c(C)c1,-8,-3.3,2,41,-1,-2,0,2,5.5,-0.4
CCOc1cc(/C=N/O)ccc1OCC(=O)Nc1cccc(C)c1,-2,0.0,9,7,-27,14,/,/,/,-2.7
CCOc1cccc(C(=O)Nc2ccccc2OC(F)F)c1,-1,0.0,10,-3,-8,4,/,/,/,-1.8
CS(=O)(=O)N(CC(=O)N/N=C/c1ccc(OCC(=O)N2CCOCC2)cc1)c1ccccc1Cl,-4,-0.1,2,/,-3,-3,14,8,-0.2,1.0
CCOC(=O)/C(C#N)=N/Nc1ccc(S(=O)(=O)N2CCc3ccccc32)cc1,36,0.4,-8,18,2,15,/,/,/,0.9
CCC(=O)c1ccccc1OCCN1C(=O)NC(C)(C)C1=O,2,0.0,-13,-2,5,2,2,-2,-5.6,-2.7
O=C(CN1C(=O)CC(c2ccco2)Sc2ccccc21)NC1CCCCC1 (centres undefined),-1,1.6,-8,/,-2,-6,-10,-10,7.9,-2.6
CCOC(=O)NC(=O)CSc1nc(C)cc(C)c1C#N,3,-1.1,-1,-11,1,-12,/,/,/,-0.1
Fc1ccccc1NC(=S)Nn1cnnc1,-10,-0.2,0,0,-2,-16,7,14,-0.7,-3.2
CCOc1cccc(C(=O)Nc2ccc(N(CC)CC)cc2)c1,/,-1.3,6,/,14,-5,/,/,/,-3.0
COc1ccc(O)c(-c2cc(-c3cccc(Br)c3)n[nH]2)c1,23,0.1,-4,42,-4,4,/,/,/,6.1
CC(NC(=O)COC(=O)COc1ccc(Cl)cc1)c1ccccc1 (centres undefined),4,1.0,/,-5,/,-6,5,17,0.5,5.2
CCN(c1c(C)n(C)n(-c2ccccc2)c1=O)S(C)(=O)=O,-4,1.9,-11,-21,-5,-6,/,/,/,2.0
NS(=O)(=O)c1ccc(N/N=C2/CCCc3ccccc32)c([N+](=O)[O-])c1,-2,0.4,13,-6,2,0,1,13,0.6,-337
CCC(Sc1nc2cc(OC)c(OC)cc2c(=O)n1Cc1ccc(OC)cc1)C(=O)NCCOC (centres undefined),4,-0.4,8,/,21,1,-4,4,1.5,-4.3
COc1ccc(CN(C)C(=O)c2ccccc2OCc2c(C)noc2C)c(OC)c1,-1,0.5,/,-1,/,1,-5,-6,-0.1,8.9
CCOC(=O)c1cccc(NC(=O)C2CCN(S(=O)(=O)c3cccs3)CC2)c1,-6,0.0,18,-4,16,6,-31,-27,-9.0,4.4
COc1ccc(-c2nnc(SC(C)C(=O)Nc3c(C)n(C)n(-c4ccccc4)c3=O)o2)cc1 (centres undefined),4,-0.3,-14,-5,-1,17,/,/,/,1.6
COc1cc2ncnc(NCc3cc(F)ccc3F)c2cc1OC,1,0.6,40,-12,5,2,-6,-22,-1.2,0.7
Cc1ccc(N=Cc2ccc(N(C)C)cc2)cc1C,0,0.1,-11,-8,1,7,10,21,6.3,1.9
CC1CCN(CCCNC(=O)c2cn(C)c3ccc(S(=O)(=O)N4CCCC4)cc3c2=O)CC1,-3,3.4,1,-2,?,5,3,13,-0.1,2.3
O=C(Nc1ccc(N2CCOCC2)cc1)c1ccc(Cl)c(S(=O)(=O)N2CCCCC2)c1,38,-0.2,/,-27,/,2,5,8,0.1,4.9

# Some of the compounds tested; the hit share may differ from the screen's.
